TRPV1 potentiator: human TRPV1 potentiation; TRPV1-expressing cells, Fluo-8 calcium influx, capsaicin EC20 potentiation; host cell line not named in the record; control for the full effect not named in the record; potentiation, % at 8.33 µM; actives 0.02% (n = 320,000); AID 540277; active means potentiation above 80%; inconclusive means 30% to 80%; inactive means below 30%; further: 0% is about no effect
Target sequence (Q8NER1 whole entry, looked up): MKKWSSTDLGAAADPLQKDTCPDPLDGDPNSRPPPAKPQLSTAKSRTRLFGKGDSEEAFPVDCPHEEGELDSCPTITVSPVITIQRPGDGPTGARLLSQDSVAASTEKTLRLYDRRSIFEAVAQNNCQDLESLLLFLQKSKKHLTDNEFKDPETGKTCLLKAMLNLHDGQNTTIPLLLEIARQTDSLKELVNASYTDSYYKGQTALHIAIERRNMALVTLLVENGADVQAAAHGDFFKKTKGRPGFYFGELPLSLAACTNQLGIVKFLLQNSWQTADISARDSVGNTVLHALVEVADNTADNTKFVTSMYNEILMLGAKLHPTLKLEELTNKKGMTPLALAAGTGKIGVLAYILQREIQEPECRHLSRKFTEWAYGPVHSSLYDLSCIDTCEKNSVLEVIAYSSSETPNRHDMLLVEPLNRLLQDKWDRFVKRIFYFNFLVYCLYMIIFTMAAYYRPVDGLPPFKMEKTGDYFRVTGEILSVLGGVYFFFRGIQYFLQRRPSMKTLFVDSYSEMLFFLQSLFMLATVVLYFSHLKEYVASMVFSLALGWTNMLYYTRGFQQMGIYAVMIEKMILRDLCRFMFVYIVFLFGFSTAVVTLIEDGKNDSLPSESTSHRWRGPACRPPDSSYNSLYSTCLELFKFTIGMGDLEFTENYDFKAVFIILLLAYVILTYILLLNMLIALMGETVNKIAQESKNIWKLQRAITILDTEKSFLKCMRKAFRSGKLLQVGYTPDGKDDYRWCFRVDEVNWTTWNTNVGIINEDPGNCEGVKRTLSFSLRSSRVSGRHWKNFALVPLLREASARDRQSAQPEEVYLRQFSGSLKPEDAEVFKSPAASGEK
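Cells expressing TRPV1 were dye-loaded with Fluo-8 and read kinetically: 10 s baseline, 3 min after compound (agonist portion), then 2 min after EC20 capsaicin (allosteric enhancer portion). Calcium-bound dye fluorescence at 480/520 nm.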
D2 PAM: positive allosteric modulators of human D2 dopamine receptor. potentiation, % (test concentration not listed). actives 0.23% (n = 360,000). AID 624464. DiscoveRx D2 beta-arrestin cells, luminescence, 90 min; 100% = 57 uM dopamine signal. P14416; active = potentiation of 50% or more; inconclusive = 30% to 50%; inactive = 30% or less;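 further: compound concentration not given in the record; tested on top of an EC20 dose of dopamine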
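PathHunter D2 cells, attached overnight at 37 deg C, received compound in DMSO plus dopamine at EC20 (50 nM final) for 90 min at 37 deg C. Beta-arrestin recruitment was read as luminescence after 1 h with detection reagent at ambient temperature.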
Menin MLL FP FL: menin-MLL binding inhibition, fluorescein peptide; Fluorescence polarization, fluorescein-MLL peptide displacement from menin; 290,000 tested, under 10 active; FP activity change, % at 61.4 µM; inconclusive = falling polarisation curve, or a change in total fluorescence; inactive = total fluorescence flat and polarisation flat or rising; no compound was filed as active; the % refers to the polarisation; negative = inhibition;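 further: % of control where 0% means no effect; inhibitors lower the polarisation; unlabelled MLL peptide was the positive control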
Sfp PPTase inh: Sfp phosphopantetheinyl transferase inhibition. Q9F4F7. Biochemical Sfp PPTase activity, qHTS. Potency, µM, without a hit: max response, negative = inhibition, actives largely listed as inhibitors. actives 3.5% (n = 310,000). AID 1490; active means well fitted inhibition curve with a large enough effect; inconclusive means small, poorly fitted or top-dose-only effect, or another doubt; inactive means no such curve, though single readings can be large or run the other way;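 further: the enzyme is Sfp with the accession as filed and its product quenches rhodamine fluorescence; potency means the concentration at half of the fitted maximal effect; 0% = enzyme reaction without inhibitor and -100% = no enzyme wells; top concentration of the series not given in the record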
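Compounds were incubated with enzyme (final 15 nM) for 15 min at room temperature before substrate addition started the reaction. Fluorescence at 525 nm excitation, 598 nm emission was recorded immediately and after 30 minutes.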
gsp ag: activates gsp, the McCune-Albright syndrome mutation | Potency, µM (doses to about 76.9 µM), for the others: at the highest dose activation (cAMP increase), most hits filed as activators | actives 0.13% (n = 340,000) | gsp mutant cells, cAMP HTRF, 30 min; control for the full effect not named in the record; active = well fitted activation curve with a large enough effect; inconclusive = small, poorly fitted or top-dose-only effect, or another doubt; inactive = no such curve, though single readings can be large or run the other way; cell line not stated here;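 further: phosphodiesterase inhibitor Ro 20-1724 added with compounds to block cAMP breakdown; potency means the concentration at half of the fitted maximal effect; nearly all actives have a fitted effect of over 60% in size; about a fifth of the inactives were tested at one dose only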
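Cells stably selected in G418 were plated at 2000/well, grown 16-24 hr, then given compounds in DMSO with the PDE inhibitor […] (300 uM solution added) for 30 min at 37C; cAMP was read by HTRF.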
ClpP mod: qHTS Assay for Activators of ClpP | ATP-dependent Clp protease proteolytic subunit (Bacillus subtilis (strain 168)), P80244 | purified B. subtilis ClpP, FRET peptide cleavage, 20 min | actives 1.9% (n = 340,000) | Potency, µM (titrated, usually from 57.5 µM), inactives show at the highest dose activity change, negative = active; active = well fitted falling curve with a large enough effect; inconclusive = small, poorly fitted or top-dose-only effect; inactive = no such curve, though single readings can be large or run the other way; further: potency means the concentration at half of the fitted maximal effect; the source files actives as falling curves though it sought activators and does not explain the sign; nearly all actives have a fitted effect of over 65% in size; many hits overshoot -100%
Target sequence (P80244 whole entry, looked up): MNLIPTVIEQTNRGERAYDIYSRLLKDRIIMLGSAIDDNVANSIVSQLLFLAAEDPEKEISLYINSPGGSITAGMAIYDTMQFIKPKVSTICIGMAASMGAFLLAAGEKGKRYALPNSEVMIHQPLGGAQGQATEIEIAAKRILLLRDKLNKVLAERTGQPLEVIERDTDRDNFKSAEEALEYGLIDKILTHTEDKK
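ClpP 10 microg/mL final, pH 8 Tris/KCl buffer with BSA, glycerol, Tween-20; compound pinned in; FRET-FV substrate; RT 20 min; Ex320/Em430; ΔFRET vs ADEP 5.8 microM, DMSO, no enzyme.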
gsp antag: gsp mutant antagonism | gsp-mutant cells, cAMP HTRF, 30 min; control for the full effect not named in the record | Potency, µM (doses to about 76.9 µM), for the others: at the highest dose activity change, negative = inhibition, actives largely listed as inhibitors | actives 0.4% (n = 340,000) | AID 624288; active = falling curve of any shape with a large fitted effect; inconclusive = falling curve, mostly with a smaller effect; inactive = flat or rising curve; cell line not stated here;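 further: intracellular cAMP measured with PDE inhibitor Ro 20-1724 present during compound exposure; potency means the concentration at half of the fitted maximal effect; on the % scale 0 is the no-effect control and ±100 the full control effect; nearly all actives have a fitted effect of over 65% in size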
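Cells in G418 medium, seeded 16-24 h, 37C; buffer exchange to DPBS + 1 mM CaCl2, 0.5 mM MgCl2, 0.05% BSA; cpds in DMSO + […] (300 uM stock), 30 min 37C; HTRF cAMP detection.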
An asterisk follows results filed as active; u = inconclusive; x = not tested or not shown; [ ] = remark or other dose.

SMILES	TRPV1 potentiator	D2 PAM	Menin MLL FP FL	Sfp PPTase inh	gsp ag	ClpP mod	gsp antag
COc1ccc(OCc2n[nH]c(=S)n2Cc2ccco2)cc1	-4	-15	-0.2	-6%	13%[15.4 µM]	x	-6%
Cc1nc(SCC(=O)c2ccccc2)[nH]c(=O)c1Oc1ccc(Cl)cc1	13	0	7.1	14%	15%	x	-22%
COc1ccc(-c2cc(C(=O)c3c(N)n(C)c(=O)n(C)c3=O)c3ccccc3n2)cc1	7	-13	-0.9	-3%	13%	-21%	-5%
O=C(COC(=O)c1ccccc1OCc1ccccc1Cl)NC1CC1	-12	23	u	11%	-48%[inhibitor]	-13%	7%
CCCCC(=O)NC(c1ccc(N(CC)CC)cc1)c1ccc2cccnc2c1O (stereo not given)	16	2	1.1	17%	u	x	-2%
CN(C)Cc1c(C(=O)N/N=C/c2ccc(OCc3ccc(F)cc3)cc2)nnn1-c1nonc1N	-6	-6	-5.1	2%	-6%[15.4 µM]	-0.8%	8%
COc1ccc(S(=O)(=O)N2CCCCCC2)cc1	-2	2	1.1	23%	26%	-0.8%	16%
C[C@H]1CN([C@@H](C)CO)S(=O)(=O)c2ccc(C#CC3(O)CCCC3)cc2O[C@@H]1CN(C)C(=O)Cc1cccnc1	x	-11	x	x	-85%[inhibitor]	-2.1%	x
O=C(Nc1ccccc1C(F)(F)F)C1CCN(C(=O)Cc2ccccc2)CC1	-4	-10	1.4	8%	-18%	1.6%	-6%
NNc1nc2c(-c3ccc(Cl)cc3)nnn2c2ccccc12	-7	15	9.2	-11%	-46%[inhibitor]	-12%	-10%
CC(C)COC(=O)Cn1cnc2ccc(Br)cc2c1=O	u	-14	5.2	10%	-5%	-0.2%	19%
CCOc1ccccc1OCCCC(=O)NCCc1ccc(S(N)(=O)=O)cc1	2	-2	-0.6	5%	u	x	5%
COC(=O)CNC(=O)COC(=O)Cc1ccc(Cl)cc1	9	-3	-8.1	25%	24%	1.5%	5%
COC(=O)/C(C#N)=C1/SC=C(C)N1c1ccccc1	18	-17	-0.3	-11%	13%	u	6%
OCCN(CCO)CC(O)COCCC12CC3CC(CC(C3)C1)C2 (stereo not given)	2	-8	2.7	-1%	-1%	-1.9%	14%
CSc1n[nH]c(-c2ccc(C(F)(F)F)cc2)n1	-14	-10	-2.8	22%	u	x	1%
CCOC(=O)N1CCN(Cc2nc(-c3cccc(C)c3)no2)CC1	-16	-3	-1.5	11%	-34%[inhibitor]	1.7%	-11%
CCOc1ccc(C(=O)NCC(=O)OCC(=O)N2CCCC2)cc1	1	-8	-5.1	21%	-170%[inhibitor]	2.4%	-9%
CC(=O)N1CCc2cc(Br)cc(S(=O)(=O)N3CCCCC3)c21	11	-6	-2.2	11%	15%	x	-7%
O=C(O)COc1ccc(C(NC(=O)c2c(F)cccc2F)NC(=O)c2c(F)cccc2F)cc1	2	-2	-2.6	5%	-2%	-0.9%	1%
CCCCNC(=S)NNC(=O)c1cc(C)on1	-26	-14	1.6	-10%	-43%[inhibitor]	0.5%	-7%
Cc1ccc(/C=C2/SC(=S)N(CC(=O)Nc3ncc(Cc4ccc(C)cc4)s3)C2=O)cc1	9	-11	2.3	-2%	-18%	-5.1%	3%
COc1ccc(CNC(=O)CN(C(=O)CCC(=O)Nc2ccccn2)c2cc(C)ccc2C)cc1	3	-8	9.7	3%	20%[15.4 µM]	-2.6%	9%
O[C@@H]1C[C@H](c2ccc(Cl)cc2)N(CC2CCCCC2)C[C@H]1n1cc(C2CC2)nn1	x	4	x	x	-48%[inhibitor]	1.0%	x

Results in gsp antag and TRPV1 potentiator, for some of the entries so far:
compound | gsp antag | TRPV1 potentiator
CCOc1ccc(C(=O)NCC(=O)OCC(=O)N2CCCC2)cc1 | -9% | 1
OCCN(CCO)CC(O)COCCC12CC3CC(CC(C3)C1)C2 (stereo not given) | 14% | 2

The list continues:
SMILES	TRPV1 potentiator	D2 PAM	Menin MLL FP FL	Sfp PPTase inh	gsp ag	ClpP mod	gsp antag
O=C(/C=C/c1ccc(S(=O)(=O)N2CCOCC2)cc1)N1CCN(c2ccccc2)CC1	-21	-9	-0.6	18%	-17%	-2.2%	-3%
O=C(O)[C@H](Cc1ccccc1)NC(=O)C(c1ccccc1)(c1ccccc1)c1ccccc1	18	-3	-3.1	1%	u	0.6%	-5%
COc1ccc(NC(=O)CSc2nc3ccccc3c(=O)n2CCCN2CCCCC2)c(OC)c1	3	-15	-1.8	-22%	1%	-9.9%	14%
CCOC(=O)CSc1cc(CS(=O)(=O)c2ccccc2)nc(-c2ccccc2)n1	-27	-23	-0.3	4%	-2%	-8.0%	-11%
O=C(COC(=O)c1cccc(Br)c1)NCCc1ccc(F)cc1	-7	0	-8.8	-10%	-42%[inhibitor]	-2.9%	4%
COc1ccc(C2CC(=O)C3=C(C2)Nc2ccccc2N(C(C)=O)C3c2ccco2)cc1 (stereo not given)	6	-3	-9.3	1%	-29%	-12%	-19%
N#C/C(=C\c1ccc2c(c1)OCO2)C(N)=S	4	-15	-0.4	u	u	0.1%	-4%
C=CCn1c(COc2ccc(F)cc2)nnc1SCC(=O)NC1CCS(=O)(=O)C1 (stereo not given)	-5	-3	x	x	13%	-3.3%	6%
Cc1ccc(CNC(=O)CN2CCN(Cc3ccc(C)cc3)C2=O)cc1	-9	-9	3.5	-6%	22%	1.5%	-2%
Cc1cc(CN(C)C(=O)c2cc(COc3ccc(C)c(C)c3)on2)n[nH]1	-23	3	x	-9%	25%	-1.4%	3%
O=C(CCc1ccccc1Cl)N1CCN(S(=O)(=O)c2ccccc2)CC1	-4	11	x	x	-4%	1.1%	10µM*
Cc1onc(C(=O)NCc2ccc(F)cc2)c1[N+](=O)[O-]	-17	-8	-1.4	-9%	-29%	x	3%
Nc1nnc(-c2ccccc2F)s1	15	-5	4.9	-9%	8%	x	-4%
Cc1ccc(-c2cc(N)n(-c3ccc(F)cc3)n2)cc1	u	-6	-0.2	12%	-7%[15.4 µM]	-1.7%	3%
O=C(NCc1cccnc1)Nc1ccc(Cl)c(Cl)c1	-12	3	-2.2	18%	-11%	-0.3%	-5%
CCCCCCNc1c([N+](=O)[O-])cc(C)cc1[N+](=O)[O-]	x	-14	x	x	-23%	1.2%	-6%
Cc1ccc(NC(=O)CSc2nnc(-c3ccncc3)o2)cc1	-12	-3	0.0	-3%	10%	-1.0%	2%
COc1cccc2c(=O)c(SC(F)(F)C(F)C(F)(F)F)c(C)[nH]c12 (stereo not given)	-9	-18	-0.4	-4%	-1%	u	-7%
CCN1C(=O)[C@H]2[C@@H](c3ccc(-c4cccc(Cl)c4)cc3)N[C@@](C)(C(=O)OC)[C@H]2C1=O	2	-4	x	x	-20%	-16%	-8%
CCN(c1ccccc1)S(=O)(=O)c1ccc2c(c1)N(C(C)=O)CCS2	-5	2	-3.1	3%	-34%[inhibitor]	0.0%	-4%
CN1C(=O)[C@H]2[C@@H](/C=C/c3ccccc3)N3C(=O)CN(Cc4ccc(-c5ccccc5)cc4)C(=O)[C@@]3(Cc3ccccc3)[C@H]2C1=O	-9	-5	2.3	10%	x	-2.3%	-6%
O=C1C2C3C=CC(C3)C2C(=O)N1/N=C/c1cn(Cc2ccccc2)c2ccccc12 (stereo not given)	-3	-48	-5.6	-1%	16%	-1.3%	-10%
COc1cc(OC)c(C(=O)OCC(=O)N(Cc2ccccc2)C(C)(C)C)cc1OC	10	-4	-4.4	15%	0%[15.4 µM]	-2.5%	0%
COc1ccc(-c2nnn(CC(=O)N3CCN(c4ccccc4OC)CC3)n2)cc1	28	6	1.4	12%	10%	0.8%	-8%

Single values from the entries so far:
gsp ag, O=C(NCc1cccnc1)Nc1ccc(Cl)c(Cl)c1 → -11%
gsp ag, CCN(c1ccccc1)S(=O)(=O)c1ccc2c(c1)N(C(C)=O)CCS2 → -34%[inhibitor]
Menin MLL FP FL, Nc1nnc(-c2ccccc2F)s1 → 4.9
ClpP mod, CN1C(=O)[C@H]2[C@@H](/C=C/c3ccccc3)N3C(=O)CN(Cc4ccc(-c5ccccc5)cc4)C(=O)[C@@]3(Cc3ccccc3)[C@H]2C1=O → -2.3%
Sfp PPTase inh, COc1cc(OC)c(C(=O)OCC(=O)N(Cc2ccccc2)C(C)(C)C)cc1OC → 15%
ClpP mod, Cc1ccc(NC(=O)CSc2nnc(-c3ccncc3)o2)cc1 → -1.0%
Menin MLL FP FL, COc1ccc(-c2nnn(CC(=O)N3CCN(c4ccccc4OC)CC3)n2)cc1 → 1.4

(next part)
SMILES	TRPV1 potentiator	D2 PAM	Menin MLL FP FL	Sfp PPTase inh	gsp ag	ClpP mod	gsp antag
O=C(NCc1ccccc1)c1ccc(N2C(=O)C3CCCCC3C2=O)cc1 (stereo not given)	-20	24	-0.7	2%	9%	1.4%	8%
CCCCn1c(N)c(N(CC)C(=O)c2ccc([N+](=O)[O-])c(C)c2)c(=O)[nH]c1=O	17	-10	8.0	12%	-1%[15.4 µM]	u	3%
Cc1nc([N+](=O)[O-])c(C(=O)OCc2ccc(C#N)cc2)n1C	-2	-1	-3.8	0%	9%[15.4 µM]	x	-49%
COc1cccc(N/C(N)=N/c2nc(CSc3ccccn3)cc(=O)[nH]2)c1	-2	x	-4.7	15%	x	x	x
Cc1cccc(NC(=O)C(C)SCc2ccccc2)c1 (stereo not given)	-15	-2	-8.2	4%	-24%	1.0%	7%
CC(=O)NC1C(=O)N(Cc2ccccc2)c2ccc(Br)cc21 (stereo not given)	-9	-14	0.0	5%	2%	0.3%	-1%
CCC1CCCCN1C(=O)COC(=O)CN(C)S(=O)(=O)c1ccc(NC(C)=O)cc1 (stereo not given)	u	-6	x	x	-24%	-13%	3%
CCC(=O)NNc1ncnc2c1cnn2-c1ccccc1	9	-3	2.7	15%	-18%[15.4 µM]	x	-5%
COc1ccc2[nH]c(=O)c(CN(CCc3ccccc3)Cc3nnnn3CC3CCCO3)cc2c1 (stereo not given)	-7	-13	-0.3	50µM*	7%	25µM*	-17%
COc1ccc(C(=O)c2sc(Nc3cccc(OC)c3)c(C(=O)Nc3cccc(C)c3C)c2N)cc1	1	-27	-1.1	-6%	30%	-5.0%	6%
COC(=O)C(Cc1ccccc1)OS(N)(=O)=O (stereo not given)	9	-11	2.3	10%	x	-2.7%	-5%

Bioassay records as filed in PubChem.
